Screens: PubChem BioAssay, several laboratories
UUG fidelity = modulators of start codon recognition fidelity in yeast; S. cerevisiae UUG-firefly luciferase reporter, luminescence/redox ratio; activity score, % at 18.7 µM; actives 0.13% (n = 350,000); AID 602363;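 active = replicate mean at a twofold rise or more, about +100% in these data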;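 note: firefly luciferase made from a UUG start codon reports start codon fidelity; reporter light over untreated wells divided by growth signal over untreated wells; some hits fall short of that in this replicate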
MT1-MMP act inh = inhibitors of human MT1-MMP activation; AID 651647; GFP/RFP ratio change, % at 20 µM; actives 0.061% (n = 360,000); HT1080 RFP-PRO-GFP cells, GFP/RFP ratio fluorescence, overnight; percent of plate control window, DMSO zero;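 active = GFP/RFP ratio change of at least 30% with cell ATP level not reduced by more than half and red fluorescence within 50% of control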; note: strong numbers were not always called active
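Material: RFP-PRO-GFP reporter HT1080 cells. Dosing: single-point 20 µM compound, 1% DMSO. Controls: DMSO and RFP-L50D-GFP cell wells. Timing: cells overnight before dosing, compound overnight, 37 °C, 5% CO2. Measure: GFP/RFP fluorescence ratio.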
Rce1 inhib = yeast Ras-converting enzyme inhibition; calls only; yeast membranes, quenched prenylated peptide cleavage fluorescence; actives 0.27% (n = 290,000);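 active = fall in fluorescence gain of 50% or more versus controls, with final raw signal at or below 3038400; inconclusive = same 50% fall but final raw signal above 3038400; inactive = fall in fluorescence gain under 50%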;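 note: plate controls were neutral control wells for no effect and wells lacking membranes for full effect; tested at 10 µM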
Env fusion inh = HIV envelope-mediated fusion inhibition; HeLa-JRFL Env/CEM21 cell fusion, luciferase; inhibition, % at 12.3 µM; actives 1.1% (n = 360,000); AID 651610;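 active = mean replicate inhibition score of at least 50 and every replicate individually at or above 50; inconclusive = only one of the two criteria met; inactive = mean below 50 and not all replicates reaching 50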;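 note: 0% = plate neutral controls and 100% = maraviroc near 300 nM; one replicate is shown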
CSC inhib = blocks cancer stem cells; cancer stem cell-like cells viability, luminescence; inhibition, % at 7.5 µM; actives 1.1% (n = 300,000); AID 2717;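 active = mean at 75% or more and at least half the replicates too; inconclusive = mean and replicates disagree; tested in HMLE shEcad cells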;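 note: 0% = median of negative and 100% = median of positive control wells; the first replicate is given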
eIF4H FP inh = inhibitors of RNA binding by human eIF4H. actives 0.94% (n = 290,000). Q15056. eIF4H fluorescence polarization binding assay. inhibition, % at 35 µM;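 active = 50% or more with normal probe brightness, or confirmed in later tests; inconclusive = above 50% with abnormal brightness, or retests that disagree; inactive = below 50% or failed in later tests; about a fifth of its hits are not listed in these tables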;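 note: calls also rest on retests at 20 µM and on dose response follow-up; 0% = protein and probe with vehicle and 100% = probe without protein; strong numbers were not always called active; many hits fall short of the cut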
PABP FP inh = blocks human PABP binding to poly(A) RNA. actives 1% (n = 290,000). inhibition, % at 35 µM. P11940. fluorescence polarization;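 active = 50% or more with normal probe brightness, or confirmed in later tests; inconclusive = above 50% with abnormal brightness, or retests that disagree; inactive = below 50% or failed in later tests; about a fifth of its hits are not listed in these tables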;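 note: calls also rest on retests at 20 µM and on dose response follow-up; controls were probe without protein and protein plus probe with vehicle; some compounds called inactive have numbers as strong as hits; many hits fall short of the cut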
Target sequence (P11940 whole entry, looked up): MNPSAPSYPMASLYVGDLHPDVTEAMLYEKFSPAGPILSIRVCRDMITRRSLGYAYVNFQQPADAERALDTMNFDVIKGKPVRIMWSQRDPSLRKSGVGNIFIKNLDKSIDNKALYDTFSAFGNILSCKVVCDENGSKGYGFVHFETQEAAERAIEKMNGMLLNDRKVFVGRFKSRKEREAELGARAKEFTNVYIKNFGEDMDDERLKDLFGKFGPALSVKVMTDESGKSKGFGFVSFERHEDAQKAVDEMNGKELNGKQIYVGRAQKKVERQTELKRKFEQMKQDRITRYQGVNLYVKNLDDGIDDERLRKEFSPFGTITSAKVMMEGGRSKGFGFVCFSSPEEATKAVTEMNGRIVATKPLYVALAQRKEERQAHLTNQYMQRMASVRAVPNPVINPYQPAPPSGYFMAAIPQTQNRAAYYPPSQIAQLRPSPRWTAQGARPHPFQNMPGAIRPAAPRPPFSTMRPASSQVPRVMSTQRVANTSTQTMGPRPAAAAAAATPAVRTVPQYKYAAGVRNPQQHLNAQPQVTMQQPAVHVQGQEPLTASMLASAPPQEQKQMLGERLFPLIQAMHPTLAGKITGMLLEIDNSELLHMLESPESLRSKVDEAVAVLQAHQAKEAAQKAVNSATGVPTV
eIF4H FP inh retest = second read-out of eIF4H FP inh, no call of its own (marks repeat the call); inhibition, %; compound at 20 µM; confirmation average;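 mean of two retest wells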
PABP FP inh retest = second read-out of PABP FP inh, no call of its own (marks repeat the call); inhibition, %; compound at 20 µM; confirmation repeats;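 mean of two retest wells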
MT1-MMP act inh RFP = further read-out of MT1-MMP act inh, marked with its call; RFP signal change, %; measured here: RFP expression control read;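 0 = vehicle wells; hits needed this value within 50% of zero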
Starred values were filed as active, the others as inactive; i = inactive; ? = inconclusive; nt = not tested or not shown; & = joins results of further samples.

SMILES	UUG fidelity	MT1-MMP act inh	MT1-MMP act inh RFP	Rce1 inhib	Env fusion inh	CSC inhib	eIF4H FP inh	PABP FP inh	others
CCOC(=O)C1=C(c2ccccc2)c2ccccc2N(S(=O)(=O)C(F)(F)F)C1C(=O)OCC (stereo not drawn)	-6	-2	-2	nt	60*	nt	nt	nt
CC1(C)CC(NS(=O)(=O)c2ccc(S(=O)(=O)N3CCOCC3)cc2)CCO1 (stereo not drawn)	-12	-2	0	i	-29	-12	-2	10
COc1ccc(C2SCCN2C(=S)Nc2ccc(F)cc2)cc1 (stereo not drawn)	nt	2	-2	i	16	13	-1	12
COc1cnc(-c2ccccn2)nc1Sc1ccc(F)cc1	nt	4	-4	i	5	1	1	-10
CN(CC(=O)Nc1cccc(F)c1)C(=O)C1CSC2(C)CCC(=O)N12 (stereo not drawn)	-10	5	6	i	nt	-10	nt	nt
COc1ccccc1N(C)S(=O)(=O)c1ccc(C(=O)NC(C)c2ccccc2)cc1 (stereo not drawn)	0	6	-3	i	23	-11	-12	1
O=C(NNC(=O)C1[C@H]2CCCC[C@@H]12)Nc1cccc2ccccc12 (stereo partly drawn)	-20	-3	-5	i	10	-6	-8	1
COc1cc2c(cc1NC(=O)COC(=O)CNC(=O)c1ccccc1)oc1ccccc12	nt	1	-5	i	-2	15	-2	-12
Cc1ccc(-n2c(SCC(=O)c3c(N)n(C4CC4)c(=O)[nH]c3=O)nnc2N2CCOCC2)cc1	7	1	6	nt	-2	nt	nt	nt
Cc1c(C(=O)NCc2ccc3c(c2)OCO3)oc2ccc(S(=O)(=O)N3CCCCCC3)cc12	-17	-2	-6	i	12	4	-3	-2
COc1ccc(-c2cc(C(=O)N/N=C(\C)c3ccco3)c3ccccc3n2)c(OC)c1	-18	0	0	i	nt	-2	1	3
Clc1ccc(CNCc2cccs2)c(Cl)c1	nt	7	7	i	-16	-11	5	1
COC(=O)c1ccc(N2CN=C(c3ccc(C)cc3)NC2=S)cc1	nt	5	4	i	-12	-2	-16	1
Cc1cc(=O)oc2cc(OCC(=O)Nc3ccc4[nH]c(=O)[nH]c4c3)ccc12	-6	-3	6	nt	nt	11	nt	nt
Cc1ccc(/C=C/C(=O)OCC(=O)Nc2ccc3[nH]c(=O)[nH]c3c2)o1	1	0	3	i	-7	-5	nt	nt
CCC1(COC(NC(=O)c2cccnc2)(C(F)(F)F)C(F)(F)F)COC1	-18	4	4	i	-14	0	-9	1
Cc1ccc(CSc2nnc(CCCCCNC(=O)OC(C)(C)C)o2)cc1	15	5	-15	i	25	-3	-18	7
Cc1nn(C)cc1/C=C/C(=O)c1ccc(O)cc1	-7	-3	-7	i	-16	-12	-6	-12
C[C@@H]1CN([C@H](C)CO)C(=O)CCCn2nncc2CO[C@H]1CN(C)S(=O)(=O)c1ccc(Oc2ccccc2)nc1	-2&-5	5	4	nt	14	nt	nt	nt
COCCNC(=O)CN1C(=O)NC2(CCCc3cc(OC)ccc32)C1=O (stereo not drawn)	-7	0	3	i	4	-8	-7	-5
COc1ccc(-c2cc3ccc(F)cc3cn2)cc1	-29	-1	-2	nt	i	-1	nt	nt
CS(=O)(=O)c1ccc(Cl)c(NC(=O)CN2CCN(S(=O)(=O)/C=C/c3ccccc3)CC2)c1	-6	0	-2	nt	-2	nt	nt	nt
Cc1ccc(C2(C)NC(=O)N(CC(=O)NC(=O)NC(C)C)C2=O)cc1 (stereo not drawn)	-2	-2	-1	i	-1	-9	-4	1
COc1cccc(C(=O)Nc2cccc(-c3ccc(N4CCOCC4)nn3)c2)c1OC	6	5	-2	i	-24	-8	nt	nt
O=C(NCc1ccc2c(c1)OCO2)Oc1ccccc1	-3	2	-4	i	nt	-9	-8	-2
O=C(C1CCCN(S(=O)(=O)c2cccc3cccnc23)C1)N1CCN(c2ccccc2F)CC1 (stereo not drawn)	-9	4	-4	i	-17	-25	-2	-12
COc1ccc(C(=O)N(CCN2CCOCC2)CC(=O)NC2CCCC2)cc1OC	nt	-5	6	i	-29	-9	-2	-16
COC(=O)c1ccc(Oc2nc(NC(C)C)nc(N(C)C)n2)cc1	-30	-17	-12	i	16	-3	11	-3
CN1CCN(S(=O)(=O)c2ccc(NC(=O)c3ccc(Br)o3)cc2)CC1	-19	-4	-3	i	-13	2	-1	-10
CCc1ccc(OCC(=O)Nc2ccc3oc(=O)ccc3c2)cc1	-12	-1	-2	i	7	-2	3	6
O=C1Nc2ccccc2C1C(C[N+](=O)[O-])c1ccccc1 (stereo not drawn)	4	0	5	i	3	-11	3	-4
CCc1ccc(C(CNc2nc(C(F)(F)F)nc3ccccc23)N(C)C)cc1 (stereo not drawn)	-1	-2	-3	i	-1	28	-3	6
COc1ccc(CN2CCCC(C(=O)N3CCCCC3)C2)cc1 (stereo not drawn)	1	3	4	i	-9	-15	3	9
Cc1cc(OC(=O)C2CC2)c([N+](=O)[O-])c(=O)[nH]1	nt	2	8	i	-5	-17	-12	-2
COc1ccc(C(=O)CCC(=O)N2CCN(c3cccc(Cl)c3)CC2)cc1	3	1	-2	i	23	nt	2	1
CC1(C)Cc2c(cnn2-c2ccc(F)cc2)C(NC(=O)Cn2cncn2)C1 (stereo not drawn)	-18	-2	-1	i	12	0	0	-5
CCOC(=O)[C@H]1[C@H]2COc3ccc(OC)cc3[C@@H]2N2C(=O)c3ccc(F)cc3NC(=O)[C@@]12C	-20	-6	-1	nt	-46	9	nt	nt
O=C(Cn1nnc(-c2cccs2)n1)N1c2ccccc2Sc2ccc(C(F)(F)F)cc21	-9	-6	-1	i	-3	1	nt	nt
CC(=O)Nc1ccc(Nc2ccc(S(=O)(=O)C(F)(F)F)cc2[N+](=O)[O-])cc1	-11	7	-2	i	17	23	-20	-16
Cc1ccc2c(c1)S/C(=C/c1ccc[n+](CCO)c1)N2C	-18	-56	-23	i	-10	-21	-2	-9
COc1c(O)ccc(/C=N/NC(=O)c2ccc3c(c2)OCCO3)c1[N+](=O)[O-]	-18	3	2	i	-22	-3	-11	3
Cc1cccc(NC(=O)CC2NC3CCCCC3NC2=O)c1 (stereo not drawn)	-5	1	2	i	9	-11	-8	20
C[C@H](NC(=O)c1nc[nH]c1C(=O)N[C@@H](Cc1ccccc1)C(=O)OCc1ccccc1)C(=O)OCc1ccccc1	-11	5	1	i	-11	13	8	-5
Cc1ccc(NC(=O)C(C)c2ccc(-c3ccccc3)c(F)c2)c(C)c1 (stereo not drawn)	-10	-3	-4	i	nt	nt	-6	5
CCNC(=S)N/N=C/c1ccc(C#N)cc1	-19	1	-1	i	15	nt	-1	3
O=C(NCc1ccncc1)c1cc2ccccc2nc1Cl	-16	-1	1	i	-3	-2	-2	-3
Cc1ccc(S(=O)(=O)c2cc3c(=O)n4ccccc4nc3n(C3CCCC3)c2=N)cc1	-10	3	-8	i	22	-5	1	13
Cc1ccc(S(=O)(=O)N(CC(=O)N2CCC(C(N)=O)CC2)c2cccc(C(F)(F)F)c2)cc1	-6	-2	1	i	nt	-13	0	-4
O=C(Cn1nnc(-c2ccccc2)n1)N1CCN(S(=O)(=O)c2ccc(Cl)cc2)CC1	-14	2	0	i	21	nt	3	7
COc1cc(/C=C(/C#N)c2nc(-c3cc4ccccc4oc3=O)cs2)cc([N+](=O)[O-])c1O	nt	nt	nt	nt	5	nt	37	83	eIF4H FP inh retest=19;PABP FP inh retest=20
CC(C)CN(C(=O)COC(=O)C1=COCCO1)c1c(N)n(Cc2ccccc2)c(=O)[nH]c1=O	14	-1	3	i	-12	-7	nt	nt
CCOC(=O)C1CCCN(S(=O)(=O)CCNC(=O)c2ccc3c(c2)OCO3)C1 (stereo not drawn)	-11	0	1	i	-11	-10	nt	nt
CC(C)OC(=O)N(C)C[C@@H]1OCc2cn(nn2)CCCC(=O)N([C@@H](C)CO)C[C@H]1C	-10&10	1	3	nt	-6	nt	nt	nt
CC(C)(C)OC(=O)N[C@@H](COCc1ccccc1)C(=O)N[C@@H](CO)[C@H](O)[C@@H]1C[C@@H]1C(=O)N1CCCC1	4	4	1	i	nt	7	-17	-2
O=C(COC(=O)c1cnccn1)NCCc1ccc(Cl)cc1	12	-3	4	nt	6	nt	nt	nt
CC(=O)NCCn1c(SCc2ccc(C)cc2C)nc2ccccc2c1=O	-5	-1	-9	i	?	6	-3	-8
Cc1cccc(Nc2nnc(SCC(=O)N(C)C3CCS(=O)(=O)C3)s2)c1C (stereo not drawn)	nt	2	5	i	5	6	4	6
CC(C)c1ccc(OCc2ccc(C(=O)NN3CCN(C)CC3)o2)cc1	nt	-3	-1	i	-12	-7	-2	1
CC1=CSC2=NC(=O)/C(=C\c3cccn3-c3ccc([N+](=O)[O-])cc3)C(=N)N12	-8	12	-2	i	-71	9	4	14
Cc1cc(C)c(NC(=O)/C(=C/c2ccccc2)c2ccccc2)c(C)c1	nt	-5	-1	i	15	18	-10	-11
(listing goes on)
SMILES	UUG fidelity	MT1-MMP act inh	MT1-MMP act inh RFP	Rce1 inhib	Env fusion inh	CSC inhib	eIF4H FP inh	PABP FP inh	others
CC(c1nc2ccccc2c(=O)[nH]1)N1CCOCC1 (stereo not drawn)	-13	0	5	i	20	-11	3	6
CC(C)CC(OC(=O)c1nsc(Cl)c1Cl)C(=O)NCc1cccs1 (stereo not drawn)	1	-6	-3	i	-6	3	-2	-6
Cc1sc2nc(CC(=O)NN)[nH]c(=O)c2c1C	-15	-3	1	i	18	-22	-12	-9
Cc1ccc(NC(=O)CCc2ccc(S(=O)(=O)N3CCOCC3)cc2)c(O)c1	-5	3	-4	nt	-7	-10	nt	nt
O=C(O)C1C2CC2CN1C(=O)c1ccc(Cl)cc1 (stereo not drawn)	nt	1	5	i	-1	-2	1	-4
S=c1[nH]nc(-c2ccccn2)n1/N=C/c1ccc(Cl)c(Cl)c1	-27	-4	-4	i	-63	-7	2	-6
COc1ccc(C)cc1NC(=O)CSc1ccc(-c2sc(C)nc2C)nn1	-15	4	-13	i	44	-6	0	-10
Cc1nc2ccccc2c(=O)n1/N=C/c1ccc(O)cc1O	nt	-5	-1	i	-19	7	3	2
Cc1ccc(CNc2c(C=O)c(=O)[nH]c3ccccc23)cc1	7	-1	-2	i	0	-10	4	3
COc1ccc(OC(C)C(=O)N2CCC(C)CC2)cc1 (stereo not drawn)	-7	-1	0	i	24	-5	-1	-1
O=C(Cc1ccc(Cl)cc1)Nc1ccc(NC(=O)c2cccs2)cc1	nt	3	3	nt	5	nt	-2	0
CCC(C)n1c(-c2cccc(S(=O)(=O)N3CCOCC3)c2)n[nH]c1=S (stereo not drawn)	-13	-5	-1	nt	23	nt	nt	nt
CN(C)S(=O)(=O)N1CCC(Oc2ccc(C(=O)NCC(C)(C)CO)cc2)CC1	nt	2	-4	i	-11	-5	-7	0
COc1ccc(OC)c(-n2c(Cn3c(-c4ccccn4)nc4ccccc43)n[nH]c2=S)c1	1	-1	2	i	7	-3	-13	-8
CC1=C(CC[C@@H](C)CO)OC2CC3C4CCC5CC(O)CCC5(C)C4CC(=O)C3(C)C12 (stereo partly drawn)	7	2	0	i	nt	0	nt	nt

Some of the compounds tested; the hit share may differ from the screen's.
